Beta apoptosis: inhibitors of cytokine-induced beta cell apoptosis, primary screen, luminescence; 0.8% of 300,000 active; INS-1E cytokine-induced death, ATP luminescence, 48 h; percent of positive-control rescue, neutral wells zero; protection from apoptosis, % (test concentration not listed);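 active = all replicates at 75% or more, or half of them and the mean; inconclusive = half reach 75% but not the mean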;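 note: 0% = cytokine-treated negative control wells and 100% = positive control rescue; higher means more ATP so stronger rescue from cytokine killing; wells of about 40 µL received 100 nL stock; the first replicate is given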
Vif A3G: inhibitors of Vif binding to APOBEC3G peptide, primary screen, biochemical, TR-FRET, GST-Vif 1-94, biotin-A3G peptide, dose response retest (AID 1117319); one-dose inhibition, %; IC50 in µM for titrated hits; 0.57% of 260,000 active; TR-FRET GST-Vif / biotin-A3G peptide binding; higher % means a stronger effect; test concentration not given here; strong numbers were not always called active; Virion infectivity factor (Human immunodeficiency virus type 1 group M subtype B (isolate …;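 active = above the screen mean plus three standard deviations and confirmed in dose response; inconclusive = results disagree or hit not tested in dose response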;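 note: Vif residues 1-94 fused to GST binding biotinylated APOBEC3G peptide 110-148; 0% = full assay without inhibitor and 100% = GST in place of GST-Vif; retest series ran down from 100 µM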
RanGTP-Impb inh: inhibitors of RanGTP-importin-beta interaction, primary screen, biochemical, FRET, CFP-Ran, YFP-importin-beta, homogeneous; Ran GTPase (GTP-bound) - importin-beta complex; cell-free CFP-Ran/YFP-importin-beta FRET ratio; inhibition, % (no concentration beside the values); 1.1% of 300,000 active; AID 2216, 2009;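 active = most replicates above 15%; inconclusive = exactly half above 15%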;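 note: 0% = DMSO wells and 100% = Ran loaded with GDP instead of GTP; wells of about 40 µL received 100 nL stock; the first replicate is given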
T cruzi repl: inhibitors of intracellular T. cruzi growth, primary screen, luminescence, NIH3T3 host cells; T. cruzi beta-gal in NIH3T3, 90 h; 1.4% of 300,000 active; inhibition, % (concentration not given with the values);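 active = mean inhibition across valid replicates above about 55%, limit read from the data; inconclusive = mean below that limit but half or more replicates reach it; inactive = mean below it, under half of replicates reach it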;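 note: signal also drops with host cell toxicity which is not excluded here; 0% = plate median of DMSO wells and 100% = zero luminescence signal; higher percent means less beta-gal luminescence so fewer parasites; stock transfer was 50 nL into about 50 µL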
Bfl-1 A1 inh: caspase 3/7 activation in MEF A1-2A-BIM cells, primary screen, A1 inhibitor project, cell-based, luminescence, HTS | caspase activation, % (test concentration not listed) | AID 2462, 2010 | 0.066% of 330,000 active | Caspase-Glo 3/7 luminescence, 3 h; percent of clofoctol response, vehicle zero;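 active = over half of replicate activation scores above 10%, or exactly half above 10 with the replicate mean above 10; inconclusive = replicate mean below 10 yet half the replicates above 10; inactive = over half of replicates below 10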;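 note: wells of about 30 µL received 50 nL stock; many hits fall short of the cut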
Calb FLC: C. albicans growth inhibition with fluconazole, primary screen, CaCi-2 strain, Alamar Blue fluorescence; C. albicans CaCi-2 (fluconazole-resistant clinical isolate) + fluconazole, 48 h; growth inhibition, % (test concentration not listed); 0.57% of 300,000 active; AID 1979, 2009;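 active = most replicates above 75%; inconclusive = exactly half above 75%; inactive = most below 75%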;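 note: all wells also contain fluconazole at 8 µg/ml as a sub-toxic cotreatment; 0% = median of DMSO wells and 100% = median of geldanamycin control wells; wells of about 8 µL received 7.5 nL stock; the first replicate is given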
AF4-AF9 inh: inhibitors of AF4 peptide binding to AF9, primary screen, biochemical, AlphaScreen, biotin-AF4 peptide, FLAG-AF9, single point; Protein AF-9 (Homo sapiens), P42568; inhibition, % at 10 µM; 0.47% of 350,000 active; AID 651704, 2012;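 active = every replicate reaching a set inhibition limit, whatever the replicate mean, cut at about 25% in these data; inconclusive = mean inhibition reaches that limit but some replicates miss it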;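 note: 0% = plate neutral control median and 100% = total signal loss; the record names both 10 and 1 µM as test concentration; the first replicate is given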
Target sequence (P42568 whole entry, looked up): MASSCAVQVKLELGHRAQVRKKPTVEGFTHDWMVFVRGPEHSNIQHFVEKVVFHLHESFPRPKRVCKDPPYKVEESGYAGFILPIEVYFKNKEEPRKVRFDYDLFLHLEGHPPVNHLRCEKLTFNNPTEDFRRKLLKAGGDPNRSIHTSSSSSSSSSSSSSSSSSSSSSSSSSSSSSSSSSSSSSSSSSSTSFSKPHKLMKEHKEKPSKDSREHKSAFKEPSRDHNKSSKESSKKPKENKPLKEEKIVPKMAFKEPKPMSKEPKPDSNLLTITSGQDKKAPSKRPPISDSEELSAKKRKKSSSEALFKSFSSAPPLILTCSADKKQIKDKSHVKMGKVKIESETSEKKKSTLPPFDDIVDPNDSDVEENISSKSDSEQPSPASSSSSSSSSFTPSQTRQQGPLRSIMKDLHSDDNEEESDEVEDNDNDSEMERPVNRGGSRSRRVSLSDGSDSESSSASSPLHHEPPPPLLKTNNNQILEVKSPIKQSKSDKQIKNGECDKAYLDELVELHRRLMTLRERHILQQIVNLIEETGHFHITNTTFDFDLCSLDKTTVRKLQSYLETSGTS
Ecoli rRNA inh: reduced GFP signal of wild-type E. coli, primary screen, bacterial rRNA inhibitor project, GFP/RFP fluorescence, OD600, single point. GFP signal change (wild-type ribosome), % (test concentration not listed). AID 720706, 2013. E. coli WT GFP vs humanized-ribosome RFP mutants, 24 h; hits give low values; DMSO median 0, no signal -100. 1.6% of 350,000 active;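 active = significant combined selectivity score with lowered wild-type GFP, culture density cut under 30%, mutant RFP and density less affected; inactive = any of these conditions unmet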; note: one replicate is shown; some compounds called inactive have numbers as strong as hits
Ecoli rRNA inh OD600: recorded beside Ecoli rRNA inh, whose call it bears; OD600 change, %; measured here: OD600 growth;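 optical density of the mix in the first replicate; 0 = DMSO median and -100 = no signal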
Ecoli rRNA inh RFP: recorded beside Ecoli rRNA inh, whose call it bears; RFP signal change, %; measured here: RFP humanized mutant strains;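 first replicate; 0 = DMSO median and -100 = no signal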
* marks the source's active call; other numbers are inactive results; u = inconclusive; x = not tested or not shown; & = joins results of further samples.

SMILES	Beta apoptosis	Vif A3G	RanGTP-Impb inh	T cruzi repl	Bfl-1 A1 inh	Calb FLC	AF4-AF9 inh	Ecoli rRNA inh	Ecoli rRNA inh OD600	Ecoli rRNA inh RFP
COc1ccc(OC)c(C(=O)NC(CC(N)=O)c2ccc(NCc3ccccn3)c([N+](=O)[O-])c2)c1 (stereo unspecified)	-3	x	-2.3	6	0.0	-5	2.3	-1	21	11
Nc1nc(CSC(=S)N2CCCCC2)nc(Nc2ccccc2)n1	2	x	3.3	9	-0.1	-21	3.3	-4	-3	-2.6
c1ccc(OCCOCCN2CCN(C(c3ccccc3)c3ccccc3)CC2)cc1	1	-5%	1.0	24	1.3	-7	7.6	-50	-80	-14
O=C(Nc1ccc(F)cc1)Nc1nnc(COc2ccccc2F)s1	21	14%	u	8	-0.3	1	-8.8	3	23	2.7
C/C(=N\Nc1ccc([N+](=O)[O-])cc1)c1ccc2c(c1)OCO2	3	-13%	-28	29	-0.3	u	x	x	x	x
CCCCNC(=O)CNC(=S)N(Cc1cc(OC)c(OC)c(OC)c1)C1CCCC1	1	8%	2.9	7	0.1	-13	-4.1	-7	-11	-9.7
COc1ccc(C(O)c2nc3ccccc3s2)cc1 (stereo unspecified)	-2	0%	-0.7	-5	0.5	0	x	x	x	x
COc1cccc(C(=O)NNC(=O)C(=O)Nc2ccc(C)c(Cl)c2)c1	1	x	-4.9	1	0.5	-1	-2.2	-66	-78	-29
OCC(CO)(CO)NC(=S)Nc1cc(Cl)cc(Cl)c1	1	2%	0.8	-11	2.0	1	-3.4	-21	-29	-1.2
O=c1cc(C(Cl)(Cl)Cl)oc2c1ccc1ccccc12	73	6%	0.2	69*	-0.7	39	x	x	x	x
COc1ccc(CCNC(=O)C(C)c2ccc([N+](=O)[O-])cc2)cc1 (stereo unspecified)	-4	-1%	2.2	-4	-0.6	u	-2.1	-1	1	-1.4
CC(=O)Nc1ccc(NC(=O)COc2ccc3c(c2)CCC3)cc1	-6	1%	1.2	-10	0.4	17	-3.0	20	17	-2.7
Cc1ccccc1S(=O)Cc1ccc(C(=O)N2CCN(C(=O)c3ccco3)CC2)o1 (stereo unspecified)	-2	8%	2.7	-6	0.3	-9	-0.4	3	2	-2.3
CCn1c(CNC(=O)c2ccco2)nnc1SCC(=O)c1ccccc1	5	-2%	3.3	-2	0.7	21	1.2	6	11	2.3
COc1ccc(C(=O)Nc2ccc(S(=O)(=O)Nc3onc(C)c3C)cc2)cc1OC	3	6%	-4.1	0	-0.1	8	x	x	x	x

The results go on.
SMILES	Beta apoptosis	Vif A3G	RanGTP-Impb inh	T cruzi repl	Bfl-1 A1 inh	Calb FLC	AF4-AF9 inh	Ecoli rRNA inh	Ecoli rRNA inh OD600	Ecoli rRNA inh RFP
O=C(NCCCN1CCCCCC1)C1CC(=O)N(CCc2ccccc2)C1 (stereo unspecified)	-6	-7%	1.9	-20	-0.4	-4	x	x	x	x
COc1cccc(C2=NOC(C(=O)Nc3cccc(C(C)=O)c3)C2)c1OC (stereo unspecified)	x	2%	-0.1	1	x	11	x	x	x	x
COc1ccc(C(=O)N(C)C2CCCCC2)cc1S(=O)(=O)N1CCOCC1	-2	1%	x	x	0.2	x	-0.7	x	x	x
O=C(Nc1cccc2ccccc12)N1CCN(c2ncccn2)CC1	-1	x	-4.0	-13	0.0	-17	2.6	-9	4	-1.1
C[C@H](CO)N1C[C@H](C)[C@@H](CN(C)C(=O)NC2CCCCC2)Oc2c(NS(=O)(=O)c3ccccc3)cccc2C1=O	-5	x	x	x	0.3	x	-6.0&0.6	0&7	11&7	-3.5&-0.7
COC(=O)/C=C1\SC(=Nc2ccccc2)NC1=O	-5	x	2.0	-7	0.4	5	x	x	x	x
O=C(CN1CCN(c2ccccn2)CC1)Nc1cccc(S(=O)(=O)N2CCCC2)c1	7	x	-4.1	-1	0.5	-8	1.1	-4	-7	-3.5
C=CCOc1cccc(/C=N/NC(=O)CN2CCCCC2)c1	0	-15%	-4.3	-9	u	-3	-1.7	12	15	2.5
Cc1cc(C(=O)CN2C(=O)NC3(CCCc4sccc43)C2=O)c(C)n1-c1ccc(Cl)cc1 (stereo unspecified)	-3	5%	-1.0	27	0.3	16	-0.1	-9	-9	-1.6
CCOC(=O)c1cnc2ccc(OC)cc2c1NCc1ccccc1	24	-1%	2.9	33	0.7	55	-2.5	-36	-47	-8.5
CC(C)[C@H](NC(=O)c1ccc(F)cc1)C(=O)OCC(=O)NC(=O)c1cccn1C	-6	10%	3.6	-2	0.8	-9	0.1	3	-3	-0.3
CC1CCCC(C)N1CCCNC(=O)c1ccc2nc(N3CCOCC3)sc2c1 (stereo unspecified)	-6	x	1.7	-9	-1.0	-5	-2.1	4	-3	-0.8
CCOC(=O)C1(Cc2cccc(Cl)c2)CCCN(C(=O)c2cn[nH]c2)C1 (stereo unspecified)	x	-17%	8.9	-10	0.0	-4	-1.4	-1	-12	2.0
COC(=O)c1ccc(C23CC4(C2)[C@H](CN(Cc2ccc(-c5ccccc5)cc2)[C@@H]4c2ccccc2)C3c2ccc(Cl)nc2)cc1 (stereo partly specified)	8	x	0.9	-1	-0.3	-8	-8.9	4	10	-13
Cc1cc2c(n1-c1ccc(C(N)=O)cc1)CC(C)(C)CC2=O	0	-5%	-1.8	0	0.7	4	x	12	2	4.7

Further records
SMILES	Beta apoptosis	Vif A3G	RanGTP-Impb inh	T cruzi repl	Bfl-1 A1 inh	Calb FLC	AF4-AF9 inh	Ecoli rRNA inh	Ecoli rRNA inh OD600	Ecoli rRNA inh RFP
O=C(Nc1cccc(Cl)c1)OCc1cn(-c2ccc(Cl)cc2)nn1	3	11%	0.7	1	-0.4	16	x	x	x	x
CC(=O)N/C(=C\c1ccc(Br)s1)C(=O)O	-1	-3%	-0.7	-33	0.1	6	x	x	x	x
Nc1c(N(Cc2ccco2)C(=O)COc2ccccc2Cl)c(=O)[nH]c(=O)n1Cc1ccccc1	0	8%	x	x	0.8	x	-13	0	13	0.1
CCCC(=O)NC(=S)Nc1ccc(CN2CCOCC2)cc1	-6	0%	0.6	-5	1.8	4	-11	2	1	0.1
CCCCSc1cc(=O)n(-c2ccccc2)nc1C(=O)OCC	-1	2%	u	8	-0.1	23	x	x	x	x
Cc1ccnc(N2C3CCC2CC(O)(c2ccccc2)C3)n1 (stereo unspecified)	-1	-1%	0.4	-9	-0.1	-3	-2.3	19	4	-0.9
O=C1CN(C(=O)COC(=O)c2ccc(N3CCCCCC3)c([N+](=O)[O-])c2)c2ccccc2N1	0	11%	-0.8	43	0.1	26	10	-30	-28	-4.2
CCC(=O)Nc1nnc(S(=O)(=O)N2CCCC2)s1	0	x	-1.1	0	-0.7	0	-5.5	7	6	-0.9
Cc1ccccc1OCC(=O)N/N=C/c1cccn1C	-2	12%	6.7	-18	-0.4	8	x	3	3	-1.5
O=C(NCc1ccc2c(c1)OCO2)c1cc2ccccc2oc1=O	-3	x	-1.6	-23	0.3	-9	x	x	x	x
O=C(NCCS(=O)(=O)N1CCN(c2ccccc2F)CC1)c1ccc2c(c1)OCO2	x	-4%	u	-2	-0.1	-7	-3.5	3	2	0.9
COc1ccc(C2C(C(C)=O)=C(O)C(=O)N2c2ccc(Br)cc2)cc1 (stereo unspecified)	1	-14%	4.2	4	-1.7	-47	-3.6	-46	-68	-12
COc1ccc(NC(=O)CSc2nnc3ccc(-c4ccncc4)nn23)cc1OC	6	6%	-0.1	0	0.6	6	-1.9	12	11	-2.4
COCCn1nnnc1SCC(=O)N1CCCCC1	-6	1%	u	-6	0.3	4	x	x	x	x
Clc1ccc(CNC2CCCC2)c(Cl)c1	x	-2%	-0.9	-10	0.3	3	x	x	x	x

(next part)
SMILES	Beta apoptosis	Vif A3G	RanGTP-Impb inh	T cruzi repl	Bfl-1 A1 inh	Calb FLC	AF4-AF9 inh	Ecoli rRNA inh	Ecoli rRNA inh OD600	Ecoli rRNA inh RFP
Cc1ccccc1CNC(=O)c1ccc(Cl)c([N+](=O)[O-])c1	-4	4%	-1.9	-13	-0.7	12	x	x	x	x
Cc1nn(C)c2ncc(C(=O)c3cc(F)ccc3O)cc12	-2	3%	1.0	-18	0.0	-9	x	x	x	x
CN1CCN(c2ccc(NC(=O)CSc3nnnn3-c3ccccc3F)cc2)CC1	-3	x	u	0	-0.5	-11	1.8	-9	-27	-3.9
CN(c1ccc(F)cc1)S(=O)(=O)c1ccc(Cl)c(C(=O)NC2(C)CCS(=O)(=O)C2)c1 (stereo unspecified)	-2	-1%	x	x	0.3	x	-2.2	1	2	-1.9
CCOC(=O)C1(CC2CCCCO2)CCN(C(=O)Nc2ccccc2)CC1 (stereo unspecified)	1	2%	-3.1	-9	-2.3	16	-1.4	9	0	0.4
COc1cc(/C=N/NS(=O)(=O)c2ccc(C)cc2)ccc1OCc1ccc(C(=O)O)cc1	-3	x	-2.7	-17	-0.7	-11	x	x	x	x
CC(C)(C)/C(COc1ccccc1[N+](=O)[O-])=N/O	-5	4%	-1.8	0	-0.2	-4	2.7	-17*	-3.5*	4.9*
O=C(CCNC(=O)c1ccc(Br)o1)NC1CCCC1	-7	13%	4.4	x	-0.1	2	x	x	x	x
Cc1ccc(O)c(-c2cc(C(=O)Nc3ccc(S(=O)(=O)Nc4nc(C)cc(C)n4)cc3)[nH]n2)c1	3	x	4.6	-12	0.6	u	x	x	x	x
CCCCN(CC)CCCNC(=O)c1cn(CC(C)C)c(=O)c2c1c1ccccc1n2C	-5	0%	2.6	36	0.8	-8	4.3	-2	4	0.1
CCCn1cc(SCC(N)=O)c2ccccc21	-2	x	u	-46	0.2	-3	0.7	-3	-10	1.3
CC1CCN(C(=O)CCNC(=O)c2ccccc2)CC1	0	-1%	1.7	-8	1.2	-4	-0.6	9	16	-0.1
CC12CC3CC(C)(C1)CC(C(=O)NCc1ccco1)(C3)C2	-4	2%	0.6	10	0.2	-8	1.5	-9	12	-2.2
CC(=O)n1cc([C@@H]2C=C(C(=O)N3CCN(Cc4ccccc4)CC3)O[C@H](OCc3ccc(CO)cc3)C2)c2ccccc21	13	12%	0.9	35	-0.1	1	1.7	-4	-8	4.5
N#Cc1sc2nc(C3CC3)cc(-c3ccccc3)c2c1N	x	x	-1.0	16	0.1	31	-8.4	-10	3	-1.8
COc1ccccc1C(=O)Nc1nnc(S(=O)(=O)N2CCC(C)CC2)s1	0	x	0.4	9	0.7	-10	-1.6	-7	-4	-0.2

Bioassay records: PubChem, several laboratories

This is a subset; rates above refer to the full screens.
